High-throughput results as filed in PubChem.
UCH37 inh: blocks the human deubiquitinase UCH37. purified proteasome/UCH37, Ub-AMC cleavage fluorescence. Q9Y5K5. inhibition, % (concentration not given with the values). actives 0.33% (n = 330,000);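 active means mean of two replicates above 20%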;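 further: 0% = compound-free wells with enzyme and 100% = wells lacking proteasome; stock transfer was 100 nL into about 20 µL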
Target sequence (Q9Y5K5 whole entry, looked up): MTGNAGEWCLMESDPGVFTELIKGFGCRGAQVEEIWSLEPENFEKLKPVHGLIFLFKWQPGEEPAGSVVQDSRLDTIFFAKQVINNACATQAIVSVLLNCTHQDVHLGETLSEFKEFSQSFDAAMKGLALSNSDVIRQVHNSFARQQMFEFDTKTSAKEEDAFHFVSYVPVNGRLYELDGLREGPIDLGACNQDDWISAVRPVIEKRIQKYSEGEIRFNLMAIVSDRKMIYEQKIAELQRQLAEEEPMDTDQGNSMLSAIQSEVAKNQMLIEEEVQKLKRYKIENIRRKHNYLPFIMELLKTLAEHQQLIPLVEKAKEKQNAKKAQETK
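Material: human UCH37 enzyme supplied as purified proteasome complex / Amount: 0.15 nM proteasome as dispensed / Buffer or medium: pH 7.4 Tris-HCl (50 mM) with ovalbumin, ATP-MgCl2, DTT / Times: preincubation 30 min, reaction 25 min, room temperature / Technique: AMC fluorescence from Ub-AMC cleavage, excitation 355 nm, emission 460 nm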
FGF22 binding: shifts melting point of recombinant human FGF22; recombinant FGF22 thermal shift, SYPRO orange fluorescence; percent of sucrose octasulfate shift, DMSO zero; calls only at 9.99 µM; Q9HCT0; actives 1.5% (n = 340,000);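 active means melting point raised past a set limit in the mean and every replicate; inconclusive means no clear call; three in four hits are not shown here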
Target sequence (Q9HCT0 whole entry, looked up): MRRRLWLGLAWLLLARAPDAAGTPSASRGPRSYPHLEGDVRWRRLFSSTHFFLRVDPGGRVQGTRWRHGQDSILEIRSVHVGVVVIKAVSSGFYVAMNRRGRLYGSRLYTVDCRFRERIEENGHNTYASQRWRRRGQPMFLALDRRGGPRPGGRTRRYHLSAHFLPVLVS
Ecoli growth: inhibitors of Escherichia coli growth. OD600, 23 h; stronger effect = lower value. OD600 absorbance (concentration not given with the values). actives 0.21% (n = 330,000). AID 1053175;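 active means OD600 absorbance below the run mean of sample wells minus 3.6 SD, in any replicate, cut at about 0.56 in these data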;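 further: stock transfer was 300 nL into about 60 µL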
RanGTP-Impb inh: disruptors of Ran-importin-beta complex formation – biochemical, FRET, CFP-Ran, YFP-importin-beta, homogeneous, primary screen; cell-free CFP-Ran/YFP-importin-beta FRET ratio; inhibition, % (no concentration beside the values); actives 1.1% (n = 300,000); AID 2216;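 active means most replicates above 15%; inconclusive means exactly half above 15%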;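 further: 0% = DMSO wells and 100% = Ran loaded with GDP instead of GTP; wells of about 40 µL received 100 nL stock; the first replicate is given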
AF4-AF9 inh: inhibitors of human MLL-AF4/AF9 interaction | P42568 | AlphaScreen, biotin-AF4 peptide binding to FLAG-AF9 | inhibition, % at 10 µM | actives 0.47% (n = 350,000) | AID 651704;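 active means every replicate reaching a set inhibition limit, whatever the replicate mean, cut at about 25% in these data; inconclusive means mean inhibition reaches that limit but some replicates miss it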;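 further: 0% = plate neutral control median and 100% = total signal loss; the record names both 10 and 1 µM as test concentration; the first replicate is given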
Vif A3G: inhibitors of Vif binding to APOBEC3G peptide, primary screen, biochemical, TR-FRET, GST-Vif 1-94, biotin-A3G peptide, dose response retest (AID 1117319); TR-FRET GST-Vif / biotin-A3G peptide binding; higher % means a stronger effect; test concentration not given here; strong numbers were not always called active; inhibition, %, or IC50 in µM where a hit was titrated; actives 0.57% (n = 260,000);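 active means above the screen mean plus three standard deviations and confirmed in dose response; inconclusive means results disagree or hit not tested in dose response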;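 further: Vif residues 1-94 fused to GST binding biotinylated APOBEC3G peptide 110-148; 0% = full assay without inhibitor and 100% = GST in place of GST-Vif; retest series ran down from 100 µM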
HNF4A DNA FP: change in binding of human HNF4 alpha to DNA. HNF4a-FITC DNA binding, fluorescence polarization, 1 h. activity change, % at 10 µM. actives 0.3% (n = 360,000). AID 1224865; in the data active means activity change above about 30%, passing the limit was not always enough;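 further: controls were the assay level and a saturating level of protein; the project sought stronger binding though the title names inhibitors; some compounds called inactive have numbers as strong as hits; positive values seem to mean higher polarization but the record does not say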
Target sequence (P41235 whole entry, looked up): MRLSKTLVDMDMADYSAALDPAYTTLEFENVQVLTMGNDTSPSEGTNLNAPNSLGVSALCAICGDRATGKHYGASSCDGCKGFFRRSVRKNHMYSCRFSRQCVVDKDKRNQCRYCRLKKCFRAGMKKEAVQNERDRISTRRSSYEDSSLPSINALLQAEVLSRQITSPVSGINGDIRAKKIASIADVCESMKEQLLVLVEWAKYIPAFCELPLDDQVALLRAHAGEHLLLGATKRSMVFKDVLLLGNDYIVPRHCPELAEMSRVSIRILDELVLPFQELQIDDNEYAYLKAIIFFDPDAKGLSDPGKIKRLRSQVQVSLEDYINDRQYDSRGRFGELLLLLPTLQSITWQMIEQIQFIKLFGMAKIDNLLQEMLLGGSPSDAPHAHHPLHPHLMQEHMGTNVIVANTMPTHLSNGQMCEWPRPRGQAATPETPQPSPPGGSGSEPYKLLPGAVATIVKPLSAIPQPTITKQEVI
Numbers without * were called inactive; i = inactive; ? = inconclusive; nt = not tested or not shown; & = joins results of further samples. Some of the compounds tested, so the mix of outcomes need not match the whole.

compound	UCH37 inh	FGF22 binding	Ecoli growth	RanGTP-Impb inh	AF4-AF9 inh	Vif A3G	HNF4A DNA FP
O=C(c1cccnc1NCc1ccccc1)N1CCOCC1	4.3	nt	0.704	2.0	nt	-3.1%	-2.0
COc1ccc(OC)c(NC(=O)NCCCCc2ccccc2)c1	0.2	i	0.691	3.8	1.2	4.7%	1.1
Cc1cccc(C)c1NS(=O)(=O)c1ccc(-c2cnc(C3CC3)o2)cc1	2.0	i	0.71	0.8	3.4	2.9%	-0.2
Fc1ccccc1CN(CCN1CCOCC1)C(=S)Nc1ccccc1Cl	-0.3	i	0.689	1.9	-0.7	20.0%	2.9
N#C/C(=C\c1ccc(OCCN2CCOCC2)cc1)C(=O)Nc1ccccc1	-0.8	i	0.707	2.2	1.5	-2.5%	-2.8
Cc1cccc(N2CCN(C(=O)c3ccc(S(=O)(=O)N(C)c4ccccc4)cc3)CC2)c1C	5.7	i	0.736	nt	0.4	-6.6%	-2.9
Cc1ccc(Cn2c(C3CCCN3c3nc(-c4cc(Cl)c(N)c(Cl)c4)cs3)nc3cc(C(=O)NCCCO)ccc32)cc1 (centres undefined)	-1.4	i	0.685	-5.6	-6.4	nt	9.0
Cc1cccc(NC(=O)c2cc(NC(=O)C3CCCCC3C(=O)O)ccc2N2CCOCC2)c1 (centres undefined)	-0.6	i	0.643	-0.4	-0.1	-0.3%	1.4
O=C1CC(c2ccccc2)CC(=O)C1CS(=O)(=O)c1ccccc1 (centres undefined)	2.1	i	0.684	-4.8	-2.8	-5.8%	0.4
CCc1nnc(NC(=O)C(NS(=O)(=O)c2ccccc2)C(C)C)s1 (centres undefined)	nt	i	nt	nt	-1.0	-5.5%	-4.8
O=[N+]([O-])c1cccc2cnccc12	6.1	nt	0.688	nt	9.4	1.4%	1.2
Cc1nc(NC(=S)NC(=O)c2ccco2)sc1C(=O)N(C)C	12.2	i	0.73	-0.7	-1.7	7.2%	-1.2
CC(=O)N1CCN(CC(=O)Nc2ccc(Cl)c(S(=O)(=O)N(C)C)c2)CC1	1.3	i	0.704	0.9	4.6	4.6%	6.8
COC(=O)c1ccc(C23CC4(C2)[C@H](CN(Cc2cccnc2)[C@@H]4c2ccccc2)C3c2ccc(Cl)nc2)cc1 (some centres undefined)	5.4	i	nt	5.7	2.6	nt	-0.6
O=C(CCn1ccnc1)Nc1ccc2ccccc2c1	-0.2	i	0.692	-2.3	1.5	nt	1.8
Cn1c(CCc2nc3ccccc3[nH]2)n[nH]c1=S	2.2	i	0.704	0.9	-0.6	3.1%	-1.7
O=C(C1=C[C@@H](c2ccccc2)C[C@@H](OCc2ccc(CO)cc2)O1)N1CCN(Cc2ccc3c(c2)OCO3)CC1	-0.7	i	nt	-2.4	4.0&2.7&-0.6	-14.1%	-1.1
CCC(CO)n1cnnc1-c1ccncc1 (centres undefined)	1.6	nt	0.714	-1.1	nt	-4.8%	-4.6
COCCN(Cc1ccc(C)cc1)C(=O)[C@H]1O[C@@H](n2ccc(=O)[nH]c2=O)[C@H](O)[C@@H]1O	nt	i	nt	nt	2.3	nt	0.5
COCCCC1CCN(C(=O)C2CCC(=O)N(CCc3ccccc3)C2)CC1 (centres undefined)	-0.6	i	0.711	-1.1	-0.1	2.6%	0.1
C[C@H]1CN([C@@H](C)CO)C(=O)c2cc(NC(=O)CCN3CCOCC3)ccc2O[C@H]1CN(C)C(=O)Nc1ccc(F)cc1	4.8	i	0.786	nt	-3.1&1.4	nt	-0.6
COC(=O)c1ccc(NC(=O)C(=O)NCC2CCCO2)cc1 (centres undefined)	1.4	i	0.719	2.5	-6.2	nt	2.8
O=C(CSc1ncccn1)Nc1ccc2c(c1)CCC2	2.5	i	0.668	0.8	-12.0	0.8%	0.4
CCCN(S(=O)(=O)c1ccccc1F)S(=O)(=O)c1ccccc1Br	3.4	i	0.678	-1.1	-3.6	nt	1.2
Cc1c(CNC(=O)c2c([N+](=O)[O-])cnn2C)cnn1C	1.3	i	0.644	-2.5	-2.7	1.2%	-3.1
Cc1cccc(C)c1NC(=S)NCCc1ccc(O)c(O)c1	-1.8	i	0.728	-0.7	7.6	4.1%	-4.8
CC(=O)Nc1ccc(NC(=O)CN2C(=O)COc3ccc(S(=O)(=O)N4CCCCC4)cc32)cc1	4.1	i	0.725	-1.2	-7.8	nt	4.2
CC1CC(C)CN(CCCNC(=O)CN2C(=O)COc3ccc(S(=O)(=O)N4CCOCC4)cc32)C1 (centres undefined)	1.5	i	0.701	0.5	-0.6	1.4%	-0.8
Nc1[nH]n(-c2ccccc2)c(=O)c1N=Nc1ccccc1	4.1	i	0.638	-2.2	nt	nt	1.9
CCCCN(C)C(=O)CCC(=O)Nc1ccc2nc(N3CCN(C)CC3)cc(C)c2c1	-94.2	i	0.678	-0.2	-34.4	nt	2.2
CCOc1ccc(N=Cc2c(O)n(-c3cccc(C)n3)c(=O)c3ccccc23)cc1	6.1	nt	0.688	22.9*	nt	-11.1%	-3.3
CCOC(=O)c1c(-c2cccc([N+](=O)[O-])c2)csc1NC(=O)C1CCCCC1	0.0	nt	0.716	?	nt	9.4%	1.9
O=C(NCc1ccccc1)c1cc[n+](Cc2ccccc2)cc1	1.3	i	0.715	-3.5	-12.6	13.5%	-1.7
CCCCCCCCCCCC(=O)NC(C(=O)OCC)C(O)c1cccc([N+](=O)[O-])c1 (centres undefined)	4.4	nt	0.674	4.7	nt	-0.2%	3.0
CC1(C(=O)NCc2ccc(Cl)cc2)CCN1C(=O)c1cccc(F)c1 (centres undefined)	nt	i	nt	nt	-0.9	nt	-3.3
O=C(COC(=O)CN1C(=O)C2CCCCC2C1=O)NC1CCS(=O)(=O)C1 (centres undefined)	0.9	i	0.713	-1.6	-1.4	-2.6%	0.5
N#CCCN(Cc1cccs1)C(=O)Nc1ccccc1	4.4	i	0.709	5.1	0.4	-7.9%	-0.7
COc1cccc(NC(=O)CN(C)C(=O)c2cccc(S(=O)(=O)Nc3ccccc3OC)c2)c1	0.4	i	0.613	nt	-7.2	-3.0%	3.0
COc1ccc(CNC(=O)COC(=O)c2cccn2C)cc1	1.3	i	0.633	nt	4.4	-2.5%	1.2
CC(C)[n+]1ccn(C2=C([O-])c3ccccc3C(=O)/C2=N\S(=O)(=O)c2ccccc2)c1	39.5*	i	0.679	2.7	-0.1	6.3%	-6.3

Marked active in RanGTP-Impb inh, of those listed so far:
compound	UCH37 inh	FGF22 binding	Ecoli growth	RanGTP-Impb inh	AF4-AF9 inh	Vif A3G	HNF4A DNA FP
CCOc1ccc(N=Cc2c(O)n(-c3cccc(C)n3)c(=O)c3ccccc23)cc1	6.1	nt	0.688	22.9*	nt	-11.1%	-3.3

Remaining list, next part
compound	UCH37 inh	FGF22 binding	Ecoli growth	RanGTP-Impb inh	AF4-AF9 inh	Vif A3G	HNF4A DNA FP
O=C(CCl)Nc1ccc(-c2ccccc2)cc1	6.1	i	0.626	2.5	3.3	-1.5%	3.8
CC(C)N1CCc2c(sc(NC(=O)CCc3ccccc3)c2C(N)=O)C1	-1.3	nt	0.679	130.3*	-14.7	-6.5%	-0.6
CC(C)(C)NC(=O)c1cccc(NC(=O)c2ccc(NC(=O)c3ccco3)cc2)c1	6.3	nt	0.639	-2.9	nt	8.5%	4.6
COc1ccc(OCc2csc(N)n2)cc1	2.3	i	0.662	1.0	0.2	-2.6%	1.2
CC(C)(C)OC(=O)N1CCC(C(=O)NCC2CCCO2)CC1 (centres undefined)	6.5	i	0.625	-1.3	-1.2	nt	4.0
Cc1nn2c(NC(C)C)c3c(nc2c1-c1ccccc1)CCC3	-16.3	i	0.692	-3.3	nt	-1.4%	2.8
O=C(CSc1nnc2c(Cl)cc(Cl)cn12)N1CCN(c2ccc(F)cc2)CC1	1.7	nt	0.668	3.0	nt	-3.5%	6.1
CCc1ccc(-c2nc(CS(=O)CC(=O)NC3CC3)c(C)o2)cc1 (centres undefined)	2.1	i	0.664	2.2	1.3	-7.2%	3.6
CCOc1ccc(C(=O)Nc2ccc(NC(=O)c3ccccc3)cc2)cc1Br	-10.1	i	0.686	-2.5	-12.0	-5.8%	-2.6
CC(=O)c1ccc(OCC(O)CN(C)CCOc2ccc(Br)cc2)cc1 (centres undefined)	5.6	i	0.69	-1.5	-2.6	nt	-2.8
COCCCNC(=S)NCCNc1nc2cc(C)c(C)cc2cc1C#N	-57.7	i	0.642	9.1	-1.8	-7.3%	0.1
O=C(O)COCC(=O)N1CCN(c2cc(C(F)(F)F)nc3ccccc23)CC1	3.0	i	0.665	1.3	0.2	-1.5%	-2.4
O=S1(=O)CC(N2CC=CC2)CN1Cc1cn(Cc2cccc(Cl)c2)nn1 (centres undefined)	nt	i	nt	nt	4.1	nt	-0.4
O=C(C1=C[C@H](c2ccc3c(c2)OCO3)C[C@H](OCc2ccc(CO)cc2)O1)N1CCCCCCC1	-0.3	i	nt	2.6	-3.1	nt	-0.3
CCOC(=O)N1CCN(C(=O)CN(c2ccc(Oc3ccccc3)cc2)S(C)(=O)=O)CC1	4.9	nt	0.698	-4.5	nt	1.4%	7.4
CC(C)CC(c1nnnn1CCc1ccccc1)N1CCN(C(=O)c2ccco2)CC1 (centres undefined)	0.4	nt	0.702	-1.5	nt	10.1%	1.5
CCCc1c(C(=O)N/N=C/c2ccc(C)s2)nnn1-c1nonc1N	nt	i	nt	4.6	-1.9	nt	-1.1
CC(C)CC(=O)Nc1cccc(C(=O)Nc2ccccc2C(=O)O)c1	5.9	nt	0.716	-0.2	nt	5.7%	-1.7
c1cc2c(cc1Nc1nc(-c3ccc4c(c3)OCO4)cs1)OCCO2	-83.2	nt	0.731	2.8	nt	15.2%	7.8
COC1(OC)C(/C=C/c2ccc(C)cc2)C(C#N)(C#N)C1(OC)OC (centres undefined)	nt	nt	nt	?	nt	0.7%	1.2
Cc1cc2c(cc1C)C(c1ccccc1F)CC(=O)N2 (centres undefined)	1.0	i	0.691	9.5	-3.8	nt	-0.2
CCOC(=O)C(=CNc1ccc(-c2ccco2)c(Cl)c1)C(=O)OCC	-107.5	i	0.677	11.3	2.5	25.8%	7.1
CC(=O)c1ccc(C(=O)N2CCC(n3nccc3NC(=O)C3CC3)CC2)cc1	2.3	i	0.733	-0.5	0.1	nt	1.9
CCOc1cccc2cc(C(=O)NCc3ccccc3)c(=N)oc12	1.8	nt	0.648	-2.8	nt	1.7%	11.0
Cc1ccc(Nc2nnc(SCC(=O)NCCN3C(=O)CSC3=O)s2)cc1	0.6	i	0.707	8.3	-0.6	nt	1.7
Fc1ccc(N2CCN(C(c3cccs3)c3nnnn3CCc3ccccc3)CC2)cc1 (centres undefined)	2.9	nt	0.716	-0.8	nt	11.1%	0.3
O=C(COC(=O)c1ccccc1O)Nc1ccc2ccccc2c1	-9.5	i	0.677	nt	4.1	3.2%	-1.2
O=C(NCc1ccc(Cl)cc1)C(=O)NCC1OCCN1C(=O)c1ccc(Cl)cc1 (centres undefined)	5.8	i	0.744	-0.3	-15.3	0.8%	1.9
Cc1cccc(C(=O)NCC(=O)OCc2cc(=O)n3ccsc3n2)c1	1.2	i	0.669	-3.7	0.2	-3.9%	3.3
O=C(NCCCCc1ccccc1)C1CC(c2cc(C(F)(F)F)cc(C(F)(F)F)c2)=NO1 (centres undefined)	1.6	i	0.726	-2.2	-0.8	-9.5%	0.7
Cn1ncc(Br)c1C(=O)NCc1cccs1	3.6	i	0.684	-5.2	2.4	15.5%	-2.2
